PINK1 expr mod: modulators of PINK1 expression; PINK1 immunofluorescence, high-content cytometry, 24 h; Potency, µM (top dose mostly 76.6 µM), without a hit: at the top dose activation (PINK1 increase), most hits filed as activators; 410,000 compounds, 0.2% hits; active = well fitted activation curve with a large enough effect; inconclusive = small, poorly fitted or top-dose-only effect; inactive = flat fitted curve, though single readings scatter; cell line not stated here;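 note: potency is the fitted concentration of half-maximal effect; % of control where 0% means no effect; nearly all actives have a fitted effect of over 65% in size; a mitochondrial uncoupler was the plate control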
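Cells are seeded, rested 12 hours, then given compound at five concentrations or DMSO for 24 hours. After fixation, blocking and antibody staining, PINK1 amount and mitochondrial localization are scored; CCCP serves as control.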
Menin-MLL FL inh: menin-MLL binding inhibition, fluorescein peptide; Fluorescence polarization, fluorescein-MLL peptide displacement from menin; FP activity change, % at 61.4 µM; 290,000 tested, under 10 active; AID 1766; inconclusive = falling polarisation curve, or a change in total fluorescence; inactive = total fluorescence flat and polarisation flat or rising; no compound was filed as active; the % refers to the polarisation; negative = inhibition;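 note: % of control where 0% means no effect; inhibitors lower the polarisation; unlabelled MLL peptide was the positive control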
TRPML1 ag: activates the human TRPML1 channel | Q9GZU1 | 410,000 compounds, 0.12% hits | activation, % (no concentration beside the values) | TRPML1-expressing cells, Ca2+ dye fluorescence, FDSS; host cell line not named in the record; reference of the full effect not given here; in the data active = activation above about 50%; inconclusive = about 30% to 50%; inactive = below about 30%; note: 0% is about no effect; the text of the record puts the active cut at 80%
Target sequence (Q9GZU1 whole entry, looked up): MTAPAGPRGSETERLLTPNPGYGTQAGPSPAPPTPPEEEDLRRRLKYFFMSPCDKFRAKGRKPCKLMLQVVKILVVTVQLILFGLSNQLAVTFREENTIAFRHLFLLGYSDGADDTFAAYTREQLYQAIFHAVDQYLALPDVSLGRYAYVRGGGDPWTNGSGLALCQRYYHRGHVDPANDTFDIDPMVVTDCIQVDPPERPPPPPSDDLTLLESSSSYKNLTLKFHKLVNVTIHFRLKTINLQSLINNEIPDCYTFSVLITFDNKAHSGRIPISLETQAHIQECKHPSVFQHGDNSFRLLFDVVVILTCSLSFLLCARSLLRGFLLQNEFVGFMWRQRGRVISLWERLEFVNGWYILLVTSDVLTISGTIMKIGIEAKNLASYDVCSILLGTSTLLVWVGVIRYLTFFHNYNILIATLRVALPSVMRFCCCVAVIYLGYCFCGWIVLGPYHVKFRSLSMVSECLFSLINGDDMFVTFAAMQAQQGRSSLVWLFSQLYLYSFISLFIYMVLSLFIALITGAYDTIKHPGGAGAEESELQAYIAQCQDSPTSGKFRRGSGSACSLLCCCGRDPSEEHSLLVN
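Tetracycline-induced TRPML1-DL cells are seeded and incubated overnight before loading with a no-wash Ca2+ dye and quencher. Agonist activity is taken from the 110 s fluorescence read following compound pin-transfer on an FDSS, before EC80 54-4 challenge.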
Sfp inh: inhibitors of Bacillus subtilis Sfp phosphopantetheinyl transferase. Biochemical Sfp PPTase activity, qHTS. Potency, µM, inactives show max response, negative = inhibition, hits mostly inhibitors. 310,000 compounds, 3.5% hits. AID 1490; active = well fitted inhibition curve with a large enough effect; inconclusive = small, poorly fitted or top-dose-only effect, or another doubt; inactive = no such curve, though single readings can be large or run the other way;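 note: the enzyme is Sfp with the accession as filed and its product quenches rhodamine fluorescence; potency is the fitted concentration of half-maximal effect; 0% = enzyme reaction without inhibitor and -100% = no enzyme wells; top concentration of the series not given in the record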
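With Hepes-Na pH 7.6 buffer containing 10 mM MgCl2, Sfp (15 nM) modified BHQ-2-YbbR (12.5 uM) using rhodamine-CoA (5 uM). Two reads 30 minutes apart at 525/598 nm yielded each well's rate.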
TRPML1 blocker: human mucolipin-1 channel inhibition; Q9GZU1; TRPML1-inducible cells, Ca2+ dye fluorescence, FDSS; stronger effect = lower value; inhibition of EC80 agonist-evoked calcium signal; activity change, negative = inhibition, % (concentration not given with the values); 390,000 compounds, 0.02% hits; AID 624415; in the data active means activity change below about -50%; inconclusive means about -30% to -50%; inactive means above about -30%;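 note: stimulus is agonist 54-4 at its EC80 concentration; % is set by controls: 0 for no effect and ±100 for the full control effect; the text of the record puts the active cut at -80%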
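TRPML1-DL cells, Tet-induced overnight (~16 h, 37 °C) at 1,500 cells/well, were loaded with Ca8 no-wash dye plus quencher for 45-90 min at room temperature. Compounds were pinned during FDSS kinetic reading; agonist 54-4 at EC80 (4 uM final) then added.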
ClpP mod: qHTS Assay for Activators of ClpP; ATP-dependent Clp protease proteolytic subunit (Bacillus subtilis (strain 168)), P80244; Potency, µM (doses to about 57.5 µM), for the others: at the highest dose activity change, negative = active; 340,000 compounds, 1.9% hits; purified B. subtilis ClpP, FRET peptide cleavage, 20 min; active = well fitted falling curve with a large enough effect; inconclusive = small, poorly fitted or top-dose-only effect; inactive = no such curve, though single readings can be large or run the other way; note: potency is the fitted concentration of half-maximal effect; the source files actives as falling curves though it sought activators and does not explain the sign; nearly all actives have a fitted effect of over 65% in size; many hits overshoot -100%
Target sequence (P80244 whole entry, looked up): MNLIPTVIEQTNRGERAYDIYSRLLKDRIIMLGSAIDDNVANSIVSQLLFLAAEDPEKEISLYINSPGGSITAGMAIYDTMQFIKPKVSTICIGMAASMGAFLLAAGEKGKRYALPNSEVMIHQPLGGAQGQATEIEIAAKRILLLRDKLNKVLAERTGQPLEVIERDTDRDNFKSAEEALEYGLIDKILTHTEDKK
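Buffer: 100 mM Tris/HCl pH8, 100 mM KCl, 0.05% low protease BSA, 2.5% glycerol, 0.01% Tween-20. ClpP 10 microg/mL final; 20 min RT; delta FRET normalized to ADEP and DMSO controls.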
TRPV1 PAM: human TRPV1 potentiation; Q8NER1; TRPV1-expressing cells, Fluo-8 calcium influx, capsaicin EC20 potentiation; host cell line not named in the record; control for the full effect not named in the record; potentiation, % at 8.33 µM; 320,000 compounds, 0.02% hits; AID 540277; active means potentiation above 80%; inconclusive means 30% to 80%; inactive means below 30%; note: 0% is about no effect
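Fluo-8 calcium influx in TRPV1-expressing cells, kinetic read (ex 480/em 520 nm). Compound added and read 3 min for agonist activity, followed by capsaicin at EC20 final and 2 min further read for enhancement.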
Numbers without * were called inactive; ? = inconclusive; . = no result given; & = joins results of further samples; [ ] = another dose, or the depositor's remark.

SMILES	PINK1 expr mod	Menin-MLL FL inh	TRPML1 ag	Sfp inh	TRPML1 blocker	ClpP mod	TRPV1 PAM
Cc1ccc2oc3c(c(=O)c2c1)C(c1ccc(F)cc1)N(c1nc(C)c(C)s1)C3=O (configuration not stated)	0.7%	.	-0.6	.	-25	-0.9%	.
Cn1c(=O)c2[nH]c(SCc3cccnc3)nc2n(C)c1=S	-0.1%	.	1.2	.	12	.	.
O=[N+]([O-])c1cccc(C(=Nc2ccccc2Cl)NO)c1	17%[38.3 µM]	1.8	0.3	-5%	-6	-3.0%	-10
COc1ccc(-n2nc(C(=O)N(C)C)nc2-c2ccccc2)cc1	-0.4%	-1.4	-0.6	7%	-12	.	-29
CCCNC(=S)Nc1ccc(CC(=O)OC)cc1	11%	5.1	0.1	-4%	-12	3.8%	3
CCN(CC)c1ccc(N2C(=O)/C(=C/c3ccccn3)SC2=S)cc1	11%	-5.7	-0.3	-10%	-1	1.0%	-7
Nc1nnc(SCc2cccc(C(F)(F)F)c2)s1	-3.9%[38.3 µM]	-0.2	1.5	-13%	3	1.3%	-4
COc1cc(CNC(C)C23CC4CC(CC(C4)C2)C3)ccc1OCC(=O)NC(C)(C)C (configuration not stated)	6.7%	4.4	21	-1%	-6	.	7
COc1ccc(C(=O)NCCS(=O)(=O)N2CCc3ccccc3C2)cc1	-1.9%	.	0.1	.	-4	-2.7%	?
O=C(NCCOc1ccccc1Cl)c1cccc2c1C(=O)c1ccc(Cl)cc1S2(=O)=O	0.3%	.	-0.9	.	2	2.2%	-9
N#Cc1c2n(c3c(N)ncnc13)CCCCC2	1.2%	-1.4	-0.1	8%	-3	0.5%	-2
O=C(C1CCN(S(=O)(=O)c2cccnc2)CC1)N1CCN(c2ccccc2Cl)CC1	1.2%	-0.4	0.3	9%	-13	1.0%	-6
COc1ccc(NS(=O)(=O)c2ccc(N/N=C/c3ccc(N4CCOCC4)cc3)c([N+](=O)[O-])c2)cc1	8.2%	3.9	0.7	-15%	-2	-0.4%	-6
CCN(CC)c1ccc(/C=N/NC(=O)Nc2nonc2N)cc1	4.6%	6.0	1.4	-1%	-21	?	8
COc1cc(C(=O)OCCCN2CCCN(CCCOC(=O)c3cc(OC)c(OC)c(OC)c3)CC2)cc(OC)c1OC	1.4%	?	-0.2	0%&-16%&28%	2	-7.5%	.
COc1ccc(C2C(C(=O)N3CCN(C)CC3)c3ccccc3C(=O)N2C2CCCCC2)cc1 (configuration not stated)	0.7%	-1.0	0.2	3%	-13	1.3%	-8
CCOc1ccc(-n2c(C)nc3cc(C(=O)NCCN4CCOCC4)ccc32)cc1	6.4%[38.3 µM]	4.9	0.3	0%	12	-3.9%	-2
CC1CCCN(CCCNC(=O)CN2C(=O)COc3ccccc32)C1 (configuration not stated)	-0.3%	.	-0.1	12%	-1	-3.4%	1
C/C(=N\NC(=S)NC(C)C)c1ccc2c(c1)OCCO2	2.1%	3.8	2.2	-7%	-7	0.7%	-2
S=C(NCc1ccco1)Nc1ccc(Oc2ccc(Cl)cc2)cc1	?	2.5	1.6	-10%	6	.	.

By substructure, the compounds so far with an aryl thioether with sulfur outside any ring
SMILES	PINK1 expr mod	Menin-MLL FL inh	TRPML1 ag	Sfp inh	TRPML1 blocker	ClpP mod	TRPV1 PAM
Cn1c(=O)c2[nH]c(SCc3cccnc3)nc2n(C)c1=S	-0.1%	.	1.2	.	12	.	.
Nc1nnc(SCc2cccc(C(F)(F)F)c2)s1	-3.9%[38.3 µM]	-0.2	1.5	-13%	3	1.3%	-4

Further entries:
SMILES	PINK1 expr mod	Menin-MLL FL inh	TRPML1 ag	Sfp inh	TRPML1 blocker	ClpP mod	TRPV1 PAM
Nc1ncnc2c1nc(Cl)n2C1OC(CO)C(O)C1O (configuration not stated)	-1.5%	-2.2	.	8%	.	.	.
Cc1nn(C)cc1C(=O)Nc1ccc2c(c1)OCCO2	0.8%	-19	0.1	50µM*	13	.	21
COC(=O)c1sc(NC(=O)CCCn2nc([N+](=O)[O-])cc2C)c(C(=O)OC)c1C	0.4%	4.5	0.1	-8%	5	-9.5%	3
COCCN(CC1CCCN(C2Cc3ccccc3C2)C1)C(=O)CCC(C)=O (configuration not stated)	-0.5%	0.1	0.7	16%	1	-1.2%	-4
Cc1ccc(-c2cn(-c3cccc(Cl)c3)c(S(=O)(=O)CC(=O)Nc3ccccc3F)n2)cc1	1.7%	.	-0.3	.	-13	0.9%	.
CN(C(=O)c1cccc(NC(=O)Cc2ccc(NC(=O)C3CCCN(C(=O)C4CCC4)C3)cc2)c1)C1CC1 (configuration not stated)	-1.4%	.	0.7	.	2	0.0%	.
O=C(CSc1oc(-c2ccccc2)nc1S(=O)(=O)c1ccc(Cl)cc1)c1ccccc1	-0.7%	.	1.6	.	83	-4.5%	.
CCOC(=O)N1CCC(NC(=O)c2cnn3c2NC(c2ccco2)CC3C(F)(F)F)CC1 (configuration not stated)	-4.6%	?	0.9	56µM*	-9	-1.9%	-21
COc1ccc(OC)c(NC(=S)N2CCCC2)c1	-0.7%	.	-0.3	-1%	-14	-1.6%	4
Cc1cc(/C=C2/C(=O)N(C)C(=S)N2C)c(C)n1C1CC1	1.1%	2.6	0.7	-17%	-1	-1.0%	2
O=C(C[n+]1ccc(/C=N/O)cc1)NC(=O)Nc1ccccc1	-0.1%	.	0.8	.	19	-1.4%	3
NC(=Nc1ccc(N)cc1)C(N)=Nc1ccc(N)cc1	1.0%	-2.9	0.9	3%	14	.	-4
CN1CCCN(C(=O)c2cccc(Br)c2)CC1	-2.0%	4.2	-0.2	4%	-7	0.2%	1
Cc1cccc(Nc2nnc(C)c(=O)n2N)c1	10%[38.3 µM]	-1.2	-0.6	12%	-10	-0.5%	3
COCCNc1cc(C)nc2cc(-c3ccc(C)cc3)nn12	3.6%	4.5	-0.8	8%	-2	.	-8
Cc1nc2cccnc2n1-c1cccc(C(=O)NCc2cccc(Cl)c2)c1	0.8%	.	-0.1	.	14	-1.7%	.
CC/C(=N\NC(=O)Nc1ccccc1)c1ccccc1	9.3%	-0.2	-0.6	-6%	4	-0.8%	-12
COCC(C)NS(=O)(=O)c1ccc(NC(=O)c2ccccn2)cc1 (configuration not stated)	-0.7%	0.8	-0.9	-7%	7	-1.4%	-6
OCC(O)CSc1nc(-c2ccccc2)nc2c1CCC2 (configuration not stated)	-2.4%	-0.1	-0.5	0%	9	.	-9
O=C(CN1C(=O)c2ccccc2S1(=O)=O)NCCc1ccccc1	1.1%	.	-0.7	-2%	1	.	4
O=S(=O)(Nc1nccs1)c1ccc(NS(=O)(=O)c2cccs2)cc1	-1.7%	-0.5	-0.7	-3%	-6	0.0%	-6
COc1cccc(NC(=O)CS(=O)(=O)Cc2nc(-c3ccc(C)cc3)oc2C)c1	3.3%	1.0	2.2	-8%	-10	.	-3
O=C(CSc1nnc(-c2ccccn2)n1Cc1ccccc1)NC1CCCC1	-2.6%	-0.3	3.2	-5%	-16	2.8%	-1
O=C(CN(Cc1ccccc1)C(=O)CCC(=O)Nc1nccs1)NCC1CCCO1 (configuration not stated)	-2.4%	.	-0.4	21%	7	.	4
Cc1nn(CC(=O)NCCN2CCOCC2)c(=O)c2ccccc12	-0.3%	-0.9	-0.2	25%	1	-2.4%	-1
CCN(CC)C(=O)CSc1nnc(CCNC(=O)OC(C)(C)C)o1	0.0%	-0.8	1.8	7%	11	-2.2%	-4
COc1cccc(-c2nnc(SCC(=O)N3CCc4ccccc43)o2)c1	1.3%	.	0.2	.	5	-9.6%	.
NS(=O)(=O)c1cccc(NC(=O)CCCC2CCCCC2)c1	0.9%	0.9	3.0	14%	-28	.	-3
COc1ccc(C(C)=O)cc1CSc1ccc(S(=O)(=O)N2CCCCC2)cn1	-0.2%	.	-0.6	.	-21	0.6%	4
C=CCn1c(SCC(=O)NCC(=O)OCC)nnc1-c1cccc(OC)c1	-2.1%	1.2	-0.6	1%	-14	?	11
CC(=O)c1cc(C)ccc1OC(=O)CCN1C(=O)C2C3c4ccccc4C(c4ccccc43)C2C1=O (configuration not stated)	6.6%[38.3 µM]	0.7	-0.4	3%	14	0.5%	0
O=C(CC1SC(N2CCCCC2)=NC1=O)Nc1cccc(C(=O)NCc2ccccc2)c1 (configuration not stated)	-0.3%	.	0.2	.	-4	-5.5%	.
O=C1CN(C(=O)c2cnccn2)c2ccccc2N1	0.7%	6.0	0.5	21%	7	-12%	-5
Cc1noc(C(=O)NCc2cccnc2)c1Cl	0.4%	-1.3	-0.7	18%	26	0.3%	-2
COC(=O)c1ccc2c(c1)NC(=O)c1ccccc1S2	0.1%	6.2	.	1%	.	1.2%	-4
c1ccc2c(c1)ncn2CCCCOc1ccc2c(c1)CCC2	0.8%	0.9	4.3	32µM*	7	-0.6%	-12
O=C(COC(=O)Cc1ccc(F)cc1)NC1CCCC1	-1.9%	.	-0.3	.	10	3.0%	-6
CCOC(=O)CC(C#N)c1c[nH]c2ccccc12 (configuration not stated)	-2.9%	-0.2	-0.8	7%	-7	-2.7%	-6
CC(C)Cn1c(=O)c2sccc2n2c(CCCC(=O)NCC(C)c3ccccc3)nnc12 (configuration not stated)	-0.3%	.	-0.1	.	20	?	.
O=c1cc[nH]c2cc(C(F)(F)F)ccc12	-1.6%[38.3 µM]	-1.0	0.6	12%	-6	-16%	1
CN1CCN(c2nc3c(S(=O)(=O)c4ccc(Cl)cc4)nnn3c3ccsc23)CC1	0.3%	.	0.4	.	15	-4.8%	.
CC/C(=N\Nc1nncc2ccccc12)c1ccc(F)cc1	10%	-4.3	0.3	2%	4	.	3
CCO[C@H]1OC(C(=O)O)=C[C@@H](c2ccc(C(F)(F)F)cc2)[C@@H]1CCCO	-1.1%	0.6	0.1	9%	-12	-2.5%	7
CCOc1ccccc1OCC(=O)NNC(=S)NC1CCCCC1	3.0%	-0.2	-0.6	19%	-20	-1.2%	11
CCN(CC(=O)Nc1ccc(NC(C)=O)cc1)CC(=O)Nc1cc(C)on1	1.7%	.	1.4	.	5	-8.1%	-3
COc1ccccc1CNC(=O)COc1ccc(S(=O)(=O)N2CCOCC2)cc1	1.0%	.	0.3	.	8	0.9%	?
CCOc1cc(N2CCOCC2)c(OCC)cc1NC(=O)Cc1cn2ccsc2n1	2.1%	-0.9	-0.1	-15%	9	-3.6%	5

High-throughput results as filed in PubChem BioAssay.
